# VDR inh: Inhibitors of the vitamin D receptor (VDR): qHTS; Vitamin D3 receptor (Homo sapiens), P11473; AID 504847, 2011; hit rate 0.93% among 400,000; VDR-SRC2-3 peptide fluorescence polarization, 2 h; Potency, µM, for the others: max response, negative = inhibition, most hits filed as inhibitors; active = well fitted inhibition curve with a large enough effect; inconclusive = small, poorly fitted or top-dose-only effect, or another doubt; inactive = no such curve, though single readings can be large or run the other way; note: series mostly up to about 120 µM
# Target sequence (P11473 whole entry, looked up): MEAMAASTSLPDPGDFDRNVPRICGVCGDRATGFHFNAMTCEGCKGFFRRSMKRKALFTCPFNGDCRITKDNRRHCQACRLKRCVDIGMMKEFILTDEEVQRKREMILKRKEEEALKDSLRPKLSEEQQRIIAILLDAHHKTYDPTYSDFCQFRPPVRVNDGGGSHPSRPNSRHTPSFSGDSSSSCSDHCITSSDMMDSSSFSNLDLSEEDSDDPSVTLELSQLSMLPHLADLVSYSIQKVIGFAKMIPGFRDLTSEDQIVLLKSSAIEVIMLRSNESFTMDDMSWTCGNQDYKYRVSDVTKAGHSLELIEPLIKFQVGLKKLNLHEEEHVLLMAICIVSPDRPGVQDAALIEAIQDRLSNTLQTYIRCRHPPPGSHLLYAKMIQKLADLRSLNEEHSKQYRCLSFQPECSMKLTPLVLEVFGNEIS
#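 FP read-out; VDR + SRC2-3 coactivator peptide; 23 nl compound by pintool; 2 h RT incubation; reagents held at 4 deg C, protected from light.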
# Active calls of the source: *; u = inconclusive; & = joins results of further samples. % is set by controls: 0 for no effect and ±100 for the full control effect; potency is the fitted concentration of half-maximal effect. This is a subset, so the mix of outcomes need not match the whole.
SMILES,VDR inh
COc1ccc(C(=O)c2ccc(O)cc2)c(O)c1O,-14%
NC(=O)Oc1ccc(Cc2ccccc2)cc1,1%
Cc1ccc(Cn2ccc(NC(=O)c3c(-c4ccccc4Cl)noc3C)n2)cc1,-4%
CCCCCCSc1ccc(-c2nc3ccc(Cl)cn3c2NC2CCCCC2)cc1,-11%
CCOC(=O)c1c(NC(=O)c2cc(=O)c3c(C)cc(C)cc3o2)sc2c1CCC2,6%
Cc1cc(NC(=O)CSc2nc3ccccc3[nH]2)no1,-4%
Cc1ccccc1CSCC(=O)NC(=O)NC(C)(C)C,-4%
O=c1c2c(-c3ccccc3)csc2nc2c3ccccc3c(NCCN3CCOCC3)nn12,17%
S=C(NCCCn1ccnc1)NC1CCCCC1,7%
CC(=O)c1ccccc1OCCOc1ncnc2sccc12,-4%
Cc1ccc2nc(CNC(=O)c3ccccc3)[nH]c2c1,11%
Cc1ccc(NC(=O)Nc2nnc(-c3ccccc3)o2)cc1,7%
CCOc1ccc(OCCn2c(SCC(=O)O)nc3ccccc32)cc1,-8%
CCOC(=O)CCNC(=O)N1CCC(CCOc2ccccc2)(C(=O)OCC)CC1,2%
Cc1ccc(-c2cc3nc(-c4ccccc4)cc(C(F)(F)F)n3n2)cc1,0%
Cc1ccc(-n2c(-c3ccc(Br)cc3)nc3c(cnn3-c3ccccc3)c2=O)cc1,18%
CCC1Oc2ccc(C)cc2N(CC(=O)NCCN2CCOCC2)C1=O (stereo not drawn),10%
CCOc1ccccc1CNC(=O)C1CCCN(c2ncnc3onc(-c4ccc(F)cc4)c23)C1 (stereo not drawn),-15%
COc1ccccc1OCc1nnc(SCC(=O)N2CCCC2)o1,20%
CC(C)c1csc(CN2CCCC(CNC(=O)c3cccc4ccccc34)C2)n1 (stereo not drawn),6%
COc1ccc(OCC2c3cc(OC)c(OC)cc3CCN2C(=O)COc2ccc(Cl)cc2Cl)cc1 (stereo not drawn),0%
NC(=S)c1cc2cc(Br)ccc2oc1=O,u
Cn1c(CCN2CCCCC2)nc2cc(NC(=O)COc3ccc(Cl)cc3)ccc21,-8%
Cc1ccc(/C=N/n2cnc3sc(-c4ccccc4)cc3c2=O)o1,0%
CCOc1ccc(OCc2ccc(C(=O)Nc3ccc(Cl)cn3)o2)cc1,-6%
Cc1c(NC(=O)c2ccccc2F)cccc1-c1nc2cccnc2s1,16%
CC(C)OCCCNC(=O)C1CCC(CNS(=O)(=O)c2ccccc2)CC1 (stereo not drawn),1%
CCC1(CC)C(=O)N(C)C(=O)NC1=Nc1ccc(OC)cc1,11%
COc1ccc(S(=O)(=O)N2CCC(C)CC2)cc1OC,-15%
Oc1ccc2nc(Cc3ccccc3)[nH]c2c1,-8%
CN(C(=O)c1ccc(NC(=O)Cc2cccc(NC(=O)C3CCN(C(=O)c4ccccc4)CC3)c2)cc1)C1CCCC1,-19%
CC(=O)Nc1nc2c(s1)C(=O)NCCC2,-11%
CCn1c(SCc2cc(=O)[nH]c3ccccc23)nnc1C1CC1,4%
COCCn1c(Cc2ccccc2)nnc1SCC(=O)N1CCCC1=O,-1%
O=C(NCC1COc2ccccc2O1)C1CCCN(S(=O)(=O)c2cnc[nH]2)C1 (stereo not drawn),-13%
OCC1(CO)COC(/C=C/c2ccccc2)=N1,0%
COC(=O)c1ccc(NC(=O)CSc2nnc(CNc3ccc(OC)cc3)n2C)cc1,-2%
COCCNc1oc(-c2ccc(OC)cc2)nc1C#N,-12%
CC(C)Cc1nnc(N)s1,6%
COC(=O)Nc1nn(-c2ccc(C)cc2)c(=O)c(C#N)c1C,29%

# 4 entries from above, tab-delimited:
Structure	VDR inh
S=C(NCCCn1ccnc1)NC1CCCCC1	7%
CC(=O)c1ccccc1OCCOc1ncnc2sccc12	-4%
Cc1ccc2nc(CNC(=O)c3ccccc3)[nH]c2c1	11%
Cc1ccc(NC(=O)Nc2nnc(-c3ccccc3)o2)cc1	7%

# Returning to the listing, starting 4 compounds before the break.
SMILES,VDR inh
COC(=O)c1ccc(NC(=O)CSc2nnc(CNc3ccc(OC)cc3)n2C)cc1,-2%
COCCNc1oc(-c2ccc(OC)cc2)nc1C#N,-12%
CC(C)Cc1nnc(N)s1,6%
COC(=O)Nc1nn(-c2ccc(C)cc2)c(=O)c(C#N)c1C,29%
O=C(NCCCN1CCOCC1)c1ccc2c(=O)n(-c3ccc(F)c(Cl)c3)c(=S)[nH]c2c1,-7%
N=c1c2c(ncn1CCN1CCOCC1)Oc1ccc3ccccc3c1C2c1ccccc1 (stereo not drawn),-7%
O=C(CN(c1ccccc1)S(=O)(=O)c1ccccc1)N1CCN(Cc2ccc3c(c2)OCO3)CC1,16%
CC1(C)CC(=O)C(C(c2ccco2)C2C(=O)CC(C)(C)CC2=O)C(=O)C1,u
CN(Cc1ccccc1)C(=O)c1cccc(NC(=O)Cc2ccc(NC(=O)C3CCCN(C(=O)C4CC4)C3)cc2)c1 (stereo not drawn),-26%
CCn1c(C)nc2cc(C(=O)NNS(=O)(=O)c3ccc(C)c(C)c3)ccc21,3%
COc1ccc(CN(C)Cc2nc(Cc3ccccc3Cl)no2)cc1OC,-14%
CC(C)NC(=O)/C(=C/c1ccco1)c1ccccc1,-2%
CNC(=O)Nc1cccc2cccnc12,12%
C1=CC2CCC1ON2c1ccccc1 (stereo not drawn),-5%
CS(=O)(=O)N(Cc1ccccc1)c1ccccc1C(=O)Nc1ccccc1C(=O)NCc1ccco1,-9%
Cc1ccc(NS(=O)(=O)N2CCCCC2)cc1,20%
O=C(CNC(=O)N1CC(=O)Nc2ccccc21)NCc1ccccc1Cl,1%
Cc1ccc(C(O)(COC(=O)C(C)C)COC(=O)C(C)C)c(O)c1,-17%
COc1cc(NC(=O)Cc2ccccc2)c(C(=O)O)cc1OC,u
Cc1ccc(S(=O)(=O)Nc2ccccc2C(=O)Nc2nc(-c3ccc(F)cc3)cs2)cc1,-21%
O=c1ccc2ccc(Oc3ccc(Cl)cc3[N+](=O)[O-])cc2o1,-1%
Cc1ccc(S(=O)(=O)NCCC(=O)Nc2ccc(C)c(Cl)c2)cc1C,13%
O=C(COC(=O)C1=COCCO1)Nc1ccc(F)c(F)c1,2%
CCCN1C(=O)COc2ccc(-c3n[nH]c(=O)c4ccccc34)cc21,0%
CCOC(=O)C(Cc1cc(C(C)=O)ccc1OC(C)C)C(=O)OCC,5%
Cc1nc2c3cccnc3nn2c(C)c1CCC(=O)NCc1ccccc1,-7%
Cc1nnsc1C(=O)Oc1ccc(Cl)cc1,-3%
COc1cc(S(=O)(=O)NCc2ccncc2)c(OC)cc1Br,-18%
O=C(CCOc1ccccc1)N1CCN(S(=O)(=O)c2ccccc2F)CC1,0%
COC(=O)CSc1nnc(-c2ccccc2OC)n1-c1ccc(C)cc1,-7%
CC1Oc2cc3oc4c(O)c5c(cc4c(=O)c3c(O)c2C1(C)C)C=CC(C)(C)O5 (stereo not drawn),10%
O=C(NNC(=O)c1nc2ccccc2[nH]1)OCc1ccccc1,-1%
O=C(Nc1ccccc1)c1cccc(NC(=O)c2ccco2)c1,-5%
COc1ccc(/C(C)=N/OC/C(O)=C(\C#N)c2nc3ccccc3[nH]2)cc1OC,13%
COC(=O)C1C(=O)N2CCCSC2=C(C#N)C1c1cccs1 (stereo not drawn),-6%
COc1ccc(C2C3=C(N=C4SCC(=O)N42)c2ccccc2CC3)cc1OC (stereo not drawn),6%
O=C(O)C1CCCN(S(=O)(=O)c2ccc(Cl)s2)C1 (stereo not drawn),-13%
COc1ccc(NS(=O)(=O)c2cccc(C(=O)NCC(c3ccc(OC)cc3)N3CCCCC3)c2)cc1 (stereo not drawn),0%
Cc1ccc(CNC(=O)CN2C(=O)COc3ccc(S(=O)(=O)Nc4ccccc4)cc32)cc1,9%
O=c1[nH]n(CC2COC3(CCCCC3)O2)c(=O)c2ccccc12 (stereo not drawn),-15%
COc1ccc(OC)c(NC(=O)COc2ccc3c(c2)CCC3)c1,-15%
COc1ccc(C(CNC(=O)c2cccc(S(=O)(=O)Nc3ccc(C)cc3)c2)N2CCOCC2)cc1 (stereo not drawn),-8%
Cc1ccc2c(CSc3nnnn3C)cc(=O)oc2c1,-4%
O=C1c2cccnc2C(Nc2ccccc2Br)N1Cc1ccco1 (stereo not drawn),4%
Cc1ccc(NC(=O)CN(C)C(=O)C2CC(=O)N(Cc3ccccc3)C2)cc1 (stereo not drawn),-16%
COc1ccc(-c2[nH]c(-c3ccccc3)nc2SCC(=O)Nc2ccc3c(c2)OCCO3)cc1,-6%
C=CCOc1cccc(C2C(C(=O)c3ccc(C)o3)=C(O)C(=O)N2CCCn2ccnc2)c1 (stereo not drawn),-13%
COc1cc(NC(=S)Nc2ccc(Br)cc2Cl)c(OC)cc1Cl,-20%
Fc1cc(F)c2nc(Nc3nc4c(F)cccc4s3)sc2c1,4%
CCOc1ccc(NS(=O)(=O)c2ccc(NC(=O)[C@@H]3CCCC[C@@H]3C(=O)O)cc2)cc1,-17%
CC(C)Cn1c(SCC(=O)N2CCOCC2)nc2ccccc2c1=O,11%
CC(C)(C)NC[C@H](O)COc1nsnc1N1CCOCC1,4%&-1%&-9%&-13%&-3%&6%
COc1ccc(OC)c(NC(=O)CSc2nncc3ccccc23)c1,10%
COC(=O)CCC(=O)OC1(C)C(=O)C=C2C=C(C3CC3)N(CCc3c[nH]c4ccccc34)C=C2C1=O (stereo not drawn),-12%
COc1ccc(OC)c(C2C(C(=O)Nc3ccccc3OC)=C(C)Nc3nc(CCCO)nn32)c1 (stereo not drawn),23%
CC(C)C[C@H](NC(=O)Nc1ccc(Oc2ccccc2)cc1)C(=O)O,-5%
O=C1NCC(COCC2CC=CCC2)O1 (stereo not drawn),12%
COc1ccc(C)c2sc(N(Cc3cccnc3)C(=O)c3cccs3)nc12,15%
CCCN(CCC)C(=O)Cn1c(=O)n(-c2ccc(Cl)cc2)c(=O)c2c3c(sc21)CCCC3,3%
CC1Cc2ccccc2N1C(=O)CCS(=O)(=O)c1cccs1 (stereo not drawn),u
CCCCNC(=O)c1ccc(N2CCC3(CC2)OCCO3)c([N+](=O)[O-])c1,-9%
On1c(-c2ccccc2Cl)nc2ncccc21,1%
CCOC(=O)C1CCCN(C(=O)c2ccc(Cl)c(S(=O)(=O)N3CCc4ccccc43)c2)C1 (stereo not drawn),-3%
CCn1nc(C(=O)OCC(=O)Nc2nc(-c3ccc(OC)cc3)cs2)c2ccccc2c1=O,-6%

# Single values from the list:
# Value for COc1cc(NC(=S)Nc2ccc(Br)cc2Cl)c(OC)cc1Cl under VDR inh: -20%
# Value for O=C1NCC(COCC2CC=CCC2)O1 (stereo not drawn) under VDR inh: 12%

# Retrieved one by one from above (two):
SMILES,VDR inh
Fc1cc(F)c2nc(Nc3nc4c(F)cccc4s3)sc2c1,4%
COc1ccc(OC)c(C2C(C(=O)Nc3ccccc3OC)=C(C)Nc3nc(CCCO)nn32)c1 (stereo not drawn),23%

# Next results:
SMILES,VDR inh
O=C(CCCC[C@@H]1SC[C@H]2NC(=O)N[C@H]12)Nc1ccc(C(=O)O)cc1,12%
COc1ccc(-c2csc(NC(=O)c3ccc(S(C)(=O)=O)cc3)n2)cc1,16%
Cc1ccc(S(=O)(=O)N2CCN(c3ccccc3)CC2)cc1C(=O)NC1CCCCC1,-1%
COc1ccccc1CCNC(=O)CSc1nnc2ccc(-c3ccncc3)nn12,-1%
CCOc1ccc(C(=O)NCc2nnnn2-c2ccc(C)c(C)c2)cc1OCC,8%
NNC(=S)NC1CCS(=O)(=O)C1 (stereo not drawn),-7%
CCC1Oc2ccccc2N(CC(=O)Nc2ccc(OC)cc2OC)C1=O (stereo not drawn),5%
COc1cc(OC)c(N(C)C(=O)Cn2ncc3c(=O)oc4ccccc4c32)cc1Cl,-3%
COc1ccc2c(c1)CC[C@@H]1[C@@H]2CC[C@]2(C)[C@@H](C(C)=O)C[C@@H]12,-10%
O=C(CSc1ncnc2nc[nH]c12)c1ccc2ccccc2c1,9%
Cc1noc(C)c1-c1cncnc1NCc1cccnc1,-3%
C#CCSc1nnc(CSc2nc3ccccc3s2)n1-c1ccccc1,6%
CC1(C)Cc2c(sc3nc4n(-c5ccccc5)cnn4c(=O)c23)CO1,-7%
COc1ccc(Cl)cc1C(=O)NCC(C)C,-9%
CCCCCc1cc(=O)oc2c(C(CCN3CCCCC3)c3ccc4c(c3)OCO4)c(OC)cc(OC)c12 (stereo not drawn),-9%
Cc1ccnc(NC(=O)c2cc(F)c(F)cc2Cl)n1,-1%
COc1cc2c(cc1OC)C(=O)N1[C@H]3c4cc(C)ccc4OC[C@@H]3[C@H](c3ccccc3)[C@]1(C)C(=O)N2,-1%
Cc1ccc(CNC(=O)c2cc(C3CC3)nc3c2cnn3C(C)C)cc1,-1%
O=C(CSc1ncn[nH]1)c1cccc([N+](=O)[O-])c1,u
Cc1cccc(NC(=O)Cn2nnc(C(=O)NCc3ccco3)c2N)c1,-11%&-5%
CS(=O)(=O)N(Cc1ccc(Cl)cc1)c1ccc(C(=O)Nc2cccnc2)cc1,-3%
Cc1ccccc1-c1noc(CNC(=O)COc2ccccc2)n1,8%
Cc1cccc(N2CCN(C(=O)c3ccc(S(=O)(=O)N(C)c4ccccc4)cc3)CC2)c1C,-2%
Cn1ncc(Br)c1C(=O)NC1C2CC3CC(C2)CC1C3 (stereo not drawn),-24%
COc1cc(C)c(CN2CCN(c3ncccn3)CC2)cc1C,0%
N#CCCN(C(=O)COC(=O)c1ccc2c(c1)NC(=O)CS2)c1ccc2c(c1)OCCO2,8%
COc1ccc(C(OC(=O)c2ccco2)C(=O)NC(C)(C)C)cc1OC (stereo not drawn),-23%
